Screening data deposited in PubChem by National Center for Advancing Translational Sciences (NCATS).
Anthrax LT inh – qHTS Assay for Anthrax Lethal Toxin Internalization; Cells, anthrax lethal toxin internalization, FRET ratio (460/530); Potency, µM (highest dose often 40 µM), inactives show at the highest dose activity change, negative = inhibition, hits mostly inhibitors; 70,000 compounds, 0.67% hits; AID 912, 2007; active = well fitted falling ratio curve with the 530 nm signal flat; inconclusive = other ratio curves, or a change in one channel alone; inactive = flat curves in the ratio and both channels; the % refers to the ratio; note: % is set by controls: 0 for no effect and ±100 for the full control effect; nearly all actives have a fitted effect of over 50% in size; tested in ME-180 cells; beta-lactamase reporter
Prx2 Sm inh – Schistosoma Mansoni Peroxiredoxins (Prx2); Schistosoma mansoni peroxiredoxin 2 (Prx2); S. mansoni Prx2 activity coupled to TGR/GSH (TGR is thioredoxin glutathione reductase), NADPH fluorescence loss, qHTS; some inactives read as strong as hits; Potency, µM; 65,000 compounds, 0.07% hits; AID 448, 2006; active means full or partial inhibition curve with a strong effect at the top dose; inconclusive means weaker partial or single-point curve; inactive means no accepted curve; note: series up to 57 µM; many of its hits are not listed in these tables
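Activity is read as the drop in NADPH fluorescence (365/450 nm), recorded every 30 sec for 8 min after H2O2 addition. Prx2 is coupled to TGR-driven NADPH oxidation through glutathione, in phosphate buffer pH 7.4.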
The depositor's hits bear a star; ? = inconclusive; . = not tested or not shown; & = joins results of further samples; [ ] = remark or other dose. Potency is the fitted concentration of half-maximal effect.

SMILES	Anthrax LT inh	Prx2 Sm inh
Cc1cccc2c(=O)c(C(=O)N3CCCCCC3)c[nH]c12	-4%	>57
COC(=O)[C@@]1(Cc2ccccc2)[C@H]2c3cc(C(=O)N(C)C)[nH]c3C[C@H]2CN1C(=O)c1ccccc1	-4%	>57
Cc1ccc(OCCSc2cc(C)nc(N)n2)cc1	-17%	.
O=C(NCCN1CCCCCC1)C1CCC(CNS(=O)(=O)c2cccc3cccnc23)CC1 (centres undefined)	7%	>57
O=C(COC(=O)C1CCN(S(=O)(=O)c2cccs2)CC1)c1ccc2c(c1)OCCO2	0%	>57
O=C(NC1CCS(=O)(=O)C1)c1ccccc1C(=O)c1ccccc1 (centres undefined)	-6%	>57
Cc1sc2nc(N)sc2c1C	10%	>57
O=S(=O)(c1ccc(C2=CSC3=NCCN23)cc1)N1CCOCC1	3%	>57
O=C(NCc1ccc2c(c1)OCO2)C1CCN(S(=O)(=O)c2cccc3nsnc23)CC1	5%	>57
O=C1c2ccccc2OCOc2ccccc21	-22%	>57
O=C(O)CS(=O)c1ccc2c3c(cccc13)C(=O)c1ccccc1-2 (centres undefined)	1%[8 µM]	>57
Cc1cccc(NC(=O)CS(=O)(=O)c2cn(C)c3ccccc23)c1C	-6%	>57
Cc1[nH]c2ccccc2c1/C=N/n1cnnc1	-7%	>57
COc1cc2c(cc1NC(=O)c1ccco1)CCCC2	-7%	>57
CC(=O)NC(Cc1ccccc1)C(=O)N1CCN(C(=O)c2ccco2)CC1 (centres undefined)	17%	>57

A different layout for part of the listing above:
Compound: O=C(O)CS(=O)c1ccc2c3c(cccc13)C(=O)c1ccccc1-2 (centres undefined)
  Anthrax LT inh: 1%[8 µM]
  Prx2 Sm inh: >57

Compound: Cc1cccc(NC(=O)CS(=O)(=O)c2cn(C)c3ccccc23)c1C
  Anthrax LT inh: -6%
  Prx2 Sm inh: >57

Further records:
SMILES	Anthrax LT inh	Prx2 Sm inh
COCCn1c(=O)c(CCc2ccccc2)nc2cnc(N(C)C)nc21	?	>57
COc1cc(/C=C(\C#N)C(=O)c2ccc(O)c(O)c2)cc(I)c1O	11%	>57
Cc1ccc(-c2cc(C(=O)NCc3ccccn3)no2)cc1	23%	>57
CCN(CC)S(=O)(=O)c1ccc2oc(SCC3CN=C(c4ccc(OC)cc4)S3)nc2c1 (centres undefined)	-15%	>57
CN(C)c1ccc(/C=[N+](\[O-])C2SC(=S)N(C)C2(C)C)cc1 (centres undefined)	-8%	>57
COC(=O)C1=C(C)N(Cc2ccccc2)[C@]23O[C@](C(=O)OC)(C(=O)N2C1c1ccccc1)C(C(=O)OC)C3C(=O)OC (some centres undefined)	-12%&-5%[8 µM]	.
CCOC(=O)C(C)(C)C(=O)C(C)(C)C(O)c1ccccn1 (centres undefined)	-7%	>57
CC1=C(C(=O)Nc2ccccc2)C(c2ccc(N(C)C)cc2)NC(=O)N1 (centres undefined)	?	>57
Cc1ccc(C)n1C(Cc1ccccc1)C(=O)O (centres undefined)	-8%	>57
Cc1cccc(-n2c(N)cc(=O)nc2SCC(=O)Nc2ccccc2)c1	?	>57
CCOC(=O)OCC1OC(C#Cc2ccc(C)cc2C)C=CC1OC(=O)OCC (centres undefined)	-3%[8 µM]	.
CN(CC(=O)N1CCCCC1)S(=O)(=O)c1cccc2cccnc12	?	>57
O=C1OCCC1Sc1ncnc2sccc12 (centres undefined)	4%	>57
O=C(CSc1ccc2nnc(-c3ccccn3)n2n1)N1CCOCC1	1%	>57
Cc1noc(C)c1C(=O)N1CCC2(CCCN(Cc3nccs3)C2)CC1	?	>57
Cn1c(=O)c2c(nc(Cc3ccccc3)n2CC(=O)O)n(C)c1=O	0%[8 µM]	>57
O=C(CN1CCN(S(=O)(=O)c2ccccc2)CC1)Nc1ccc2c(c1)OCO2	-3%	>57
CCn1c(=O)cc(OCC(=O)NCCCN2CCN(c3cccc(Cl)c3)CC2)c2ccccc21	-26%	>57
Cc1ccc(O)c(N=CC2=C(O)c3ccccc3C2=O)c1	-15%	>57
COCCNC(=O)COc1ccc(OCCNC[C@@H](O)COc2ccccc2)cc1	-6%	>57
CC(C)n1c2ccccc2c2nnc(SCC(=O)OCN3C(=O)c4ccccc4C3=O)nc21	-5%	.
NC(=O)C1CCN(C(=O)c2ccc(CS(=O)(=O)c3c(Cl)cccc3Cl)o2)CC1	8%	>57
COC(=O)C1(C(F)(F)F)N=C(N(C)C)OC(N(C)C)=N1	.	>57
CCOC(=O)C1CCCN(CC(O)COc2ccc(OC)cc2C(C)(C)C)C1 (centres undefined)	-12%	>57
CCn1c(SCc2nc3cc(OC)c(OC)cc3c(=O)[nH]2)nnc1-c1ccncc1	-2%	>57
Cn1c(=O)c2c(nc(CN3CCN(c4ccccc4)CC3)n2CCCc2ccccc2)n(C)c1=O	-11%	>57
CCOc1cc(C(=O)Nc2ccc(S(=O)(=O)Nc3cc(C)on3)cc2)cc(OCC)c1OCC	3%	>57
COC(=O)[C@H](C)NC(=O)[C@@H](C)CO	6%[8 µM]	.
CCCNC(=O)Cc1ccsc1	2%	>57
COCCNC(=O)CSc1ccc(C)cc1	-27%	.

Structures shown so far containing a COOH group, in the order listed:
SMILES	Anthrax LT inh	Prx2 Sm inh
O=C(O)CS(=O)c1ccc2c3c(cccc13)C(=O)c1ccccc1-2 (centres undefined)	1%[8 µM]	>57
Cc1ccc(C)n1C(Cc1ccccc1)C(=O)O (centres undefined)	-8%	>57
Cn1c(=O)c2c(nc(Cc3ccccc3)n2CC(=O)O)n(C)c1=O	0%[8 µM]	>57

(next part)
SMILES	Anthrax LT inh	Prx2 Sm inh
C=CCn1c(SCc2cc(C(=O)OC)c(C)o2)nnc1-c1ccncc1	-6%	>57
CC(C)C(=O)Cc1ccc2ccccc2n1	-6%[8 µM]	>57
O=C(O)CCC(=O)N1CCN(c2ccccn2)CC1	-9%	>57
CC(C)c1nnc(NC(=O)CCC(=O)NCc2ccc3c(c2)OCO3)s1	-7%	>57
Cc1c(NC(=O)c2ccc(COc3ccc4ccccc4c3)o2)c(=O)n(-c2ccccc2)n1C	-12%	>57
Cc1[nH]nc2c1C1(CCOC1C)C(C#N)=C(N)O2 (centres undefined)	-6%	>57
CCOc1cccc(-c2nn3c(-c4cc(C)[nH]n4)nnc3s2)c1	1%	>57
COc1ccccc1NC(=O)Cn1nnc(-c2ccccc2NC(=O)c2ccco2)n1	-5%	>57
COC(=O)Cn1c2ccc(F)cc2c2nc(C)sc21	-13%	>57
O=C(CN1CCC(NC(=O)c2ccccc2)CC1)NCc1ccccc1F	1%	>57
O=C(NC1=NCCS1)c1cccs1	-1%	>57
CC(=O)C1=C(O)CCC1=N	-3%	>57
Cc1ccc(S(=O)(=O)N(CCO)c2cc3c(s2)CCCC3)cc1	-3%	>57
COc1ccc(C(=O)COC(=O)c2ccco2)cc1	4%	>57
CCOc1ccc(NC2c3ccccc3C(=O)N2c2ccc(Cl)cn2)cc1 (centres undefined)	?	>57

Next part; it opens with the 6 that closed the last part.
SMILES	Anthrax LT inh	Prx2 Sm inh
O=C(CN1CCC(NC(=O)c2ccccc2)CC1)NCc1ccccc1F	1%	>57
O=C(NC1=NCCS1)c1cccs1	-1%	>57
CC(=O)C1=C(O)CCC1=N	-3%	>57
Cc1ccc(S(=O)(=O)N(CCO)c2cc3c(s2)CCCC3)cc1	-3%	>57
COc1ccc(C(=O)COC(=O)c2ccco2)cc1	4%	>57
CCOc1ccc(NC2c3ccccc3C(=O)N2c2ccc(Cl)cn2)cc1 (centres undefined)	?	>57
O=C(NC1(C(F)(F)F)N=C2SCCN2C1=O)C1CCCCC1 (centres undefined)	0%	>57
CCC(=O)Nc1cnc(NC(=O)c2cccc(F)c2)cc1C	-12%	>57
COc1ccc(S(=O)(=O)NCC(c2cccnc2)N2CCN(c3ccccc3)CC2)cc1C (centres undefined)	1%	>57
Cc1onc(-c2ccccc2Cl)c1C(=O)OCN1C(=O)c2ccccc2C1=O	-17%	>57
CCCCCn1c(SCCN2CCOCC2)nc2c1c(=O)[nH]c(=O)n2C	?	>57
CC(C)OC(=O)CCc1nc2ccccc2[nH]c1=O	6%	>57
CC(C)CN1CC[C@@]2(CCCN(C(=O)c3csnn3)C2)C1	?	>57
COc1ccccc1C(=O)Nc1ccccc1C(=O)N1CCCC1	?	>57
COC(=O)c1ccccc1NC(=O)C1CC(c2ccc(F)cc2)=NO1 (centres undefined)	-8%	>57
CCCC(=O)Nc1ncnc2c1ncn2[C@@H]1O[C@@H]2COP(=O)(O)O[C@H]2[C@H]1OC(=O)CCC	?	>57
CN1CCN(C(=O)O[C@@H]2c3nccnc3C(=O)N2c2ccc(Cl)cn2)CC1	-10%&2%	>57&>57
Cc1cc(NC(=O)CSc2ncnc3sc4c(c23)CCC(C)C4)no1 (centres undefined)	-1%	>57
O=C(Cn1cc2c(n1)CCCC2)Nc1ccccc1Cl	-10%	>57
C=CCn1c(Cc2cccs2)nnc1SCC(=O)Nc1ccc(C(=O)OCC)cc1	?	>57
CCSc1nnc(NC(=O)c2cc(C)oc2C)s1	.	>57
O=C(COc1ccccc1)NCC(c1cccs1)N1CCOCC1 (centres undefined)	-1%	>57
Cc1c(C(=O)NCc2cccs2)oc2ccccc12	2%	>57
CCOc1ccccc1COC(=O)c1cccc(-n2cnnn2)c1	3%	>57
CCCn1c(-c2cccs2)nc2ccccc21	-22%	>57
COc1ccc(N2C(=O)C3CCCN3C2c2ccc(C)cc2)cc1 (centres undefined)	9%	>57
C=CCNC(=O)CCCc1ccccc1	-12%	>57
O=C(CCCCCn1c(=O)[nH]c2ccsc2c1=O)NCc1cccs1	9%	>57
CCc1nnc(SCc2ccc(C(=O)OC)o2)n1N	8%	>57
O=C(Nc1ccc(NC(=O)C2CCCCC2)cn1)c1ccco1	-9%	>57
Cc1ccc(Cn2ccc(NC(=O)c3noc4c3CCCC4)n2)cc1	1%	>57
NC(=O)c1nsc(C(=O)N(CCc2ccccc2)C(C(=O)NC2CCCC2)c2ccco2)c1N (centres undefined)	-6%	>57
CC1COC(c2cccn2Cc2ccccc2Cl)=N1 (centres undefined)	-4%	>57
COCCCn1c(C2CCCCC2)nc2oc3cc(OC)ccc3c(=O)c2c1=O	?	>57
Fc1cccc2sc(Nc3nnc(-c4ccco4)o3)nc12	-1%	>57
Cc1ccc(C)c(N2CCN(C(=O)CCNC(=O)Cn3ccc4ccccc4c3=O)CC2)c1	-18%	>57
CCOC(=O)N1CCC(NC(=O)c2cc(-c3ccc(F)cc3)[nH]c2C)CC1	12%	>57
CCCCOc1ccccc1Cn1c(=O)oc2ccc(C)cc21	?	>57
COc1ccccc1S(=O)(=O)Cc1ccc(C(=O)NC2CCCCC2)o1	-9%	>57
Cc1ccc(S(=O)(=O)NC2(C(F)(F)F)C(=O)Nc3c2c(=O)n(C)c(=O)n3C)cc1 (centres undefined)	4%	>57
CC1(C)CC(=O)C=C(NCc2ccco2)C1	2%	>57
Cc1ccc(-n2c(O)c(C=Nc3ccccc3N)c(=O)[nH]c2=O)cc1C	-9%	>57
Cc1ccc2c(c1)N(CCC(=O)NCc1ccccn1)C(=O)CO2	-1%	>57
N#Cc1c2c(c(NCCCN3CCOCC3)n3c1nc1ccccc13)CCC2	-3%	>57
CC(=O)Nc1nc2c(ncn2COCCOC(C)=O)c(=O)[nH]1	-19%	>57
CCC(C)c1ccc(NC(=O)CC(C)=O)cc1 (centres undefined)	6%	>57
O=C(CCN1CCN(c2ccccc2F)CC1)c1ccc(Br)cc1	?	.
Cc1cnc2cc(Cl)ccc2c1SCC(=O)O	-6%[8 µM]	>57
O=C(CCc1nc(-c2ccccc2F)no1)N1CCC2(CC1)OCCO2	-5%	>57
COC(=O)c1ccc2c(c1)N(Cc1nc(-c3ccc(Cl)cc3)oc1C)C(=O)C1CCCN21 (centres undefined)	-6%	>57
COc1ccccc1NC(=O)Cn1nc(C(F)(F)F)c2c1CCCC2	?	>57
COC(=O)Nc1sc2c(c1C(N)=O)CCCCCC2	-15%	>57
O=C(NCC1COc2ccccc2O1)C1CCCN(S(=O)(=O)c2cccc3cccnc23)C1 (centres undefined)	-26%	>57
CS(=O)(=O)Nc1cccc(-c2cncnc2Nc2ccccc2)c1	-4%	>57
Cn1c(C(=O)N2CCCc3ccccc32)cc2c(=O)n3ccccc3nc21	2%	>57
C[C@@H](N)Cc1cnc[nH]1	?	>57
O=C(Nc1cccc2cccnc12)[C@@H]1[C@@H](C(=O)O)[C@H]2CC[C@@H]1O2	1%[8 µM]	>57
CCOC(=O)C1=C(C)OC(N)=C(C#N)C1c1ccsc1 (centres undefined)	?	>57
CCC(C)(C)n1nnnc1C(c1ccc(C)cc1)N1CCN(Cc2cccnc2)CC1 (centres undefined)	4%	>57
Cc1cc(C)n(CCc2nc3c4ccccc4nc(SCc4ccc(C#N)cc4)n3n2)n1	3%	>57
Cc1ccc(C2(C)NC(=O)N(CC(=O)Nc3ccc4c(c3)OCO4)C2=O)cc1 (centres undefined)	-21%	>57
O=C(O)CCc1nc2ccccc2n(CCc2ccccc2)c1=O	4%	>57
N#Cc1cc2[nH]c(=O)c(=O)[nH]c2cc1[N+](=O)[O-]	?	>26
CCOc1ccc(NC(=O)c2nccnc2CO)cc1	9%	>57
Cc1ccc(-n2c(SCC(=O)OC(C)C)nnc2-c2ccncc2)cc1	-1%	>57

These rows are one share of the data, so the mix of outcomes need not match the whole.
